# VDR inh: vitamin D3 receptor (human) inhibition; VDR-SRC2-3 peptide fluorescence polarization, 2 h; actives 0.93% (n = 400,000); Potency, µM, for inactives: max response, negative = inhibition, actives largely listed as inhibitors; P11473; active means well fitted inhibition curve with a large enough effect; inconclusive means small, poorly fitted or top-dose-only effect, or another doubt; inactive means no such curve, though single readings can be large or run the other way; further: series mostly up to about 120 µM
# Target sequence (P11473 whole entry, looked up): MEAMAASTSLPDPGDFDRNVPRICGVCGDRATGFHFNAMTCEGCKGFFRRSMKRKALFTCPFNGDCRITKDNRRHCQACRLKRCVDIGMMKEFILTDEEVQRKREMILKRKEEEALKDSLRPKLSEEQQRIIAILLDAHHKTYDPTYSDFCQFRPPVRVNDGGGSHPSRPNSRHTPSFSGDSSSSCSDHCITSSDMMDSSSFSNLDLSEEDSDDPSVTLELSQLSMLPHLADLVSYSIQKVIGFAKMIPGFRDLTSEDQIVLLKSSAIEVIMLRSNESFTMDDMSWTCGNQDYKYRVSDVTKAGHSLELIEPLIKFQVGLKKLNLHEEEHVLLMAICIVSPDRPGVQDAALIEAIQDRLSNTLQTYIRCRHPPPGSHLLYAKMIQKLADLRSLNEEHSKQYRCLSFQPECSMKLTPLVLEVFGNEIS
#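 VDR–SRC2-3 interaction, FP format. Cmpds 23 nl via pintool, brief spin, 2 h ambient incubation.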
# Starred values were filed as active, the others as inactive; ? = inconclusive. On the % scale 0 is the no-effect control and ±100 the full control effect; potency means the concentration at half of the fitted maximal effect.
SMILES	VDR inh
Cc1ccc(OCC(=O)Nc2nnc(-c3ccco3)s2)cc1	27%
Cc1ccc(CN2CCN(C(=O)c3cccc4ccccc34)CC2)cc1	14%
Cc1cc(C(=O)OCC(=O)N2CC(C)OC(C)C2)c(C)n1-c1ccccc1 (stereo not drawn)	7%
O=C(CCc1nc2ccccc2c(=O)[nH]1)OCc1ccc(Cl)cc1Cl	-1%
CN(Cc1ccc(Cl)cc1)C(=O)CCl	-12%
Cc1nnc(N/N=C/c2cccs2)[nH]c1=O	-14%
CC1CCCN(C(=O)CNC(=O)Cn2ccc3ccccc3c2=O)C1 (stereo not drawn)	0%
Cc1ccccc1S(=O)(=O)Cc1ccc(C(=O)N2CCN(c3ncccn3)CC2)o1	8%
NC(=O)COn1c(SCC(N)=O)nc2ccccc2c1=O	-8%
Cc1ccc(NC(=O)c2sc(-n3nc(C)c(Cc4ccc(Cl)cc4)c3C)nc2C)cc1	8%
CC(NC(=O)COc1ccc(-c2ccccc2)cc1)C1CCCO1 (stereo not drawn)	5%
COc1ccc2nc(NC(=O)c3ccco3)sc2c1	8%
CCc1ccc(-c2cc(C)no2)cc1S(=O)(=O)N1CCN(C(=O)c2ccco2)CC1	-17%
O=C1c2ccccc2-c2nnc(-c3ccc(O)cc3)cc21	-11%
O=C(O)Cn1cc(/C=N/Nc2ccc([N+](=O)[O-])cn2)c2ccccc21	-22%

# Other entries
SMILES	VDR inh
C/C(CC(=O)Nc1ccc([N+](=O)[O-])cc1)=N\NC(=O)c1ccccc1O	-5%
Cc1ccc(-c2nnc(N3CCN(C(=O)CN4CCOCC4)CC3)c3ccccc23)cc1	-4%
COc1ccc(C(CCNCc2ccc(OC)c(OC)c2)c2ccc(F)cc2)cc1 (stereo not drawn)	-11%
Cc1ccc(S(=O)(=O)N2CCN(C(=O)CN3CCOCC3)C2)cc1	-7%
CC(=O)c1cccc(NC(=O)Cc2ccc(NC(=O)N3CCCCc4ccccc43)cc2)c1	19%
CC(=O)c1c(C)[nH]c(C(=O)C(C)Sc2nnc(NC3CC3)s2)c1C (stereo not drawn)	10%
COc1ccc(CN2C(=O)c3ccccc3C2C(=O)NC2CCCC(C)C2C)c(OC)c1 (stereo not drawn)	-1%
Cc1oc2ccc(OS(C)(=O)=O)cc2c1C(=O)OC(C)C	?
O=C(O)CCNS(=O)(=O)c1ccccc1	2%
CCn1c(SCC(=O)N2CCCc3ccccc32)nnc1-c1ccoc1C	-4%
O=c1[nH]c(CN2CCN(S(=O)(=O)/C=C/c3ccccc3)CC2)nc2ccccc12	5%
Cc1c(Cl)cccc1NC(=O)CSc1nc(=O)n(Cc2cccnc2)c2c1CCC2	2%
CC#CCN(Cc1ccco1)C(=O)C1CCC(=O)N(Cc2ccccc2F)C1 (stereo not drawn)	11%
COc1ccc(C2c3c(C)nn(-c4ccccc4)c3NC(=O)N2c2ccccc2)cc1 (stereo not drawn)	18%
OC(COC(c1ccccc1)c1ccccc1)CN1CCOCC1 (stereo not drawn)	-25%

# Part of the list above, set out differently:
Cc1ccc(-c2nnc(N3CCN(C(=O)CN4CCOCC4)CC3)c3ccccc23)cc1
  VDR inh: -4%
COc1ccc(C(CCNCc2ccc(OC)c(OC)c2)c2ccc(F)cc2)cc1 (stereo not drawn)
  VDR inh: -11%

# Going on with the list:
SMILES	VDR inh
N/C(=N\OC(=O)/C=C/c1ccccc1)c1ccncc1	-3%
CCCCSc1nnc2c(n1)OC(C)N(C(C)=O)c1ccccc1-2 (stereo not drawn)	3%
NC1=NC(=Nc2cccc(S(=O)(=O)N3CCOCC3)c2)c2ccccc21	?
S=C(NC1CCCCC1)N1CCCCC1	-9%
Cc1ccc2cc(C#N)c(SCC(=O)N3CCCc4ccccc43)nc2c1C	-20%
O=C(Nc1cnn(Cc2ccc(F)cc2)c1)c1cc2nc(-c3ccco3)cc(C(F)(F)F)n2n1	2%
COc1ccc(-c2nc3cnc(Nc4ccccc4)nc3n(CCC#N)c2=O)cc1	4%
CC(C)C(=O)Nc1c2c(nc3ccccc13)N(C)CC2	-9%
CCOC(=O)c1ccc(COC(=O)c2ccc(-c3nnc(-c4ccccc4)o3)cc2)o1	2%
CCC(C)Sc1cccc(-c2nc3ccc(Cl)cn3c2NCc2ccccc2)c1 (stereo not drawn)	-26%
O=[N+]([O-])c1ccc(Cl)c(/C=N/N2CCN(Cc3ccccc3)CC2)c1	-1%
N#Cc1c(NCc2ccccc2)ccnc1NCc1cccnc1	15%
O=C(Cn1c(CC(=O)N2CCOCC2)nc2ccccc21)Nc1ccc2c(c1)OC(F)(F)O2	-19%
CN(C)Cc1ccccc1-c1cc(N(C)Cc2ccco2)ncn1	-2%
CN(/C=C1/C(=O)CNC1=O)CCO	?

# Next entries follow.
SMILES	VDR inh
CCCCOC(=O)c1ccc(NC(=O)C(=O)NCc2ccco2)cc1	-4%
CCCP(=O)(CC(=O)O)c1ccccc1 (stereo not drawn)	20%
Cc1cc(N2CCCCC2)nc(-c2ccc(Br)cc2)n1	-1%
COc1ccc(CCNS(=O)(=O)c2cnc(Cl)c(Br)c2)cc1OC	2%
CCN1CCN(S(=O)(=O)c2ccc(Cl)c(C(=O)NCc3ccco3)c2)CC1	-16%
CN(C)C(=O)c1ccc(-c2ccc3ncnc(N4CCOCC4)c3c2)cc1	2%
CCOC(=O)C1=C(C)N(CCCC(=O)O)C(=O)NC1c1ccccc1 (stereo not drawn)	-20%
CC(Cc1ccccc1)C(=O)N1CCN(C)CC1 (stereo not drawn)	-7%
Cc1ccc(-c2nc3ccc(Cl)cn3c2Nc2ccc3c(c2)OCCO3)o1	-19%
CCc1ccccc1NC(=O)CCn1nc(C)c2c(C)n(-c3ccccc3)nc2c1=O	13%
CN1CCN(Cc2c(O)ccc3occ(C(=O)c4ccccc4)c23)CC1	-4%
CC(C)n1nc(C(=O)Nc2ccc(-n3cnnn3)cc2)c2ccccc2c1=O	-12%
COc1ccccc1C(=O)Nc1c(C(=O)N(C)Cc2ccccc2)sc2nc(C)c(Cl)c(C)c12	-20%
O=C(CN1CCN(c2ccccn2)CC1)Nc1ccc(F)cc1	3%
Cc1ccc(C)c(NS(=O)(=O)c2c(C)nn(C)c2C)c1	2%

# Carrying on.
SMILES	VDR inh
O=C(C1CCCN(S(=O)(=O)c2cccnc2)C1)N1CCn2c1nc1ccccc12 (stereo not drawn)	5%
CNC(=O)Nc1ccc(C2SCCS2)cc1	11%
CCC(=O)N1CCc2cc(S(=O)(=O)NCCC(=O)Nc3cccc(C)c3C)ccc21	3%
O=C(Cn1cc(S(=O)(=O)c2ccc(Cl)cc2)c(=O)c2ccccc21)Nc1ccc2c(c1)OCO2	0%
CCn1c(SCC(N)=O)nnc1C(C)C	7%
Cc1ccc(NC(=O)c2cccc(Cl)c2)nc1	13%
N#CC(Cc1ccc(OC(F)F)cc1)c1nc2ccccc2[nH]1 (stereo not drawn)	-5%
CC(=O)CCC(=O)NCCc1ccccc1F	1%
CC(C)(C)NC(=O)CN1C(=O)/C(=C/c2ccccc2)SC1=S	-1%
COc1ccccc1CC(=O)NC12CC3CC(CC(C3)C1)C2	?
COc1ccc(C2C(C(=O)c3ccco3)=C(O)C(=O)N2Cc2cccnc2)cc1OC (stereo not drawn)	-5%
O=C(Nc1ccc(S(=O)(=O)N2CCOCC2)cc1)c1ccc2ncsc2c1	-27%
Cc1cc(C)c2c(=O)[nH]c(SCC(=O)c3ccc(F)c(C)c3)nc2n1	3%
COc1cc(OC)cc(C(=O)Nc2cccc3ccccc23)c1	0%
CCC(C)Sc1nc(C)nc2c1c(=O)n(C)c(=O)n2C (stereo not drawn)	0%

# The results go on.
SMILES	VDR inh
Cc1ccc(C)c(S(=O)(=O)c2cn(Cc3ccccc3)c3cc(F)c(F)cc3c2=O)c1	0%
COc1ccccc1-c1nnc(SC(C)C(=O)O)n1-c1ccccc1 (stereo not drawn)	-1%
COc1ccccc1NC(=O)CN(C)S(=O)(=O)c1cc(C)ccc1OC	8%
COc1cc(C(=O)OCC(=O)Nc2ccccc2C(=O)NC2CC2)c([N+](=O)[O-])cc1OC	9%
COc1ccccc1N1CCN(CC2CN3C(=O)N(C)c4ccccc4C3=N2)CC1 (stereo not drawn)	3%
Nn1c(COc2ccccc2)nnc1SC(F)F	-1%
Cc1cc(NC(=O)Cn2c(=O)oc3ccccc32)no1	0%
Cc1c(NC(=O)CN2C(=O)NC(C)(c3ccccc3Cl)C2=O)c(=O)n(-c2ccccc2)n1C (stereo not drawn)	-16%
O=C(CCNC(=O)c1ccc(Br)cc1)OCc1ccccc1Cl	-11%
CC1CCCC(C)N1C(=O)COC(=O)c1ccc(S(=O)(=O)N(C)c2ccccc2)cc1 (stereo not drawn)	8%
N#C/C(=C\c1cccc(O)c1)C(=O)N1CCCCC1	-23%
CNCCNS(=O)(=O)c1cccc2cnccc12	3%
COc1ccccc1-c1noc2ncnc(Nc3cccc(C)c3)c12	-10%
CCCn1ncc(CN2CCC(n3nccc3NC(=O)CCc3ccccc3)CC2)c1C	6%
O=C(CN1C(=O)C2CCCCN2c2ccc(C(=O)N3CCCC3)cc21)NCc1ccccc1F (stereo not drawn)	20%

# Carrying on.
SMILES	VDR inh
CCOC(=O)C1(Cc2ccccc2)CCCN(CCCn2cccn2)C1 (stereo not drawn)	-4%
COc1ccc(CCN2C(=O)CC(N3CCC(C(N)=O)CC3)C2=O)cc1OC (stereo not drawn)	11%
CCN(CC(=O)NCc1ccc(Cl)cc1)C(=O)CCC(=O)c1ccc(F)cc1	-14%
COc1ccc(NS(=O)(=O)c2ccc3c(c2)N(C(C)=O)CC(C)S3)c(OC)c1 (stereo not drawn)	-7%
COc1cccc(NC(=O)c2cc3c(=O)n4ccccc4nc3n(CC(C)C)c2=N)c1	1%
Clc1cccc(-c2ccc(CNCc3ccccn3)o2)c1	5%
CC1=NCCN1S(=O)(=O)c1cccc([N+](=O)[O-])c1	23%
Cc1c(CC(=O)NCC(=O)NCC(=O)O)c(=O)oc2cc3oc4c(c3cc12)CCCC4	-6%
Cc1ccccc1CN(C)C(=O)[C@H](Cc1ccccc1)NC(=O)c1ccco1	11%
O=C(Nc1ccc2c(c1)OCCO2)c1cnc2n(c1=O)CCS2	8%
CS(=O)(=O)N(CC(=O)Nc1ccc2c(c1)OCO2)c1ccc(Cl)cc1	7%
Cc1cc(C)nc(CCNC(=O)CC2C(=O)NCCN2Cc2ccc(F)cc2Cl)n1 (stereo not drawn)	13%
Cc1sc2ncnc(N3CCN(c4ncccn4)CC3)c2c1C	-6%
CC(C)C(NS(=O)(=O)c1ccc2c(c1)C(C)(C)C(=O)N2C)C(=O)NCc1ccccc1Cl (stereo not drawn)	-2%
COc1cc(OC)c(NC(=O)C(Cc2ccccc2)NS(=O)(=O)c2cccc3nsnc23)cc1Cl (stereo not drawn)	-6%

# Further records follow.
SMILES	VDR inh
Cc1ccc(C(=O)CSc2nnc(-c3ccco3)n2Cc2ccccc2)cc1	?
COc1cccc(C(=O)N2CCC(N3CCN(Cc4ccc(F)cc4)C(=O)C3=O)CC2)c1	4%
Cc1ccc(N(C)S(=O)(=O)c2cccc(C(=O)N3CCN(Cc4ccccc4)CC3)c2)cc1	6%
Cc1ccc(OCC(=O)NNC(=S)NCc2ccccc2)cc1	-17%
Cc1ccc(C)c(N(CC(=O)Nc2ccccc2C(=O)NCc2ccco2)S(=O)(=O)c2ccccc2)c1	0%
COC(=O)c1nnn(CC(=O)Nc2ccc(C)c(F)c2)c1C(=O)OC	0%
CC1(C)CC(=O)C2=C(C1)N1CCCCC1CC2=O (stereo not drawn)	-6%
CN(CCO)C(=O)C(c1ccccc1)c1ccccc1	-15%
C[C@@H](C(=O)Nc1nccs1)N1C(=O)C2CC=CCC2C1=O (stereo partly drawn)	-2%
Cc1cccn2c(=O)cc(CSc3nnc(NC(=O)c4ccc(F)cc4)s3)nc12	6%
CC(=O)c1ccc(NC(=O)COc2ccccc2-c2nc(C(C)C)no2)cc1	21%
CCc1nnc(NC(=O)CSc2nc3cccnc3n2Cc2ccccc2)s1	-1%
Cc1cc(=O)cc(C)[nH]1	-12%
CCNC(=S)NS(=O)(=O)c1ccccc1	4%
CC(=O)c1ccc(S(=O)(=O)N2CCN(c3nn(C)c(=O)n(C)c3=O)CC2)cc1	?
O=C(Nc1ccc(F)cc1F)c1cc(-c2ccc(Cl)cc2)on1	-14%

# Entries from the list above that contain an aryl thioether with sulfur outside any ring, in the order listed:
SMILES	VDR inh
NC(=O)COn1c(SCC(N)=O)nc2ccccc2c1=O	-8%
CC(=O)c1c(C)[nH]c(C(=O)C(C)Sc2nnc(NC3CC3)s2)c1C (stereo not drawn)	10%
CCn1c(SCC(=O)N2CCCc3ccccc32)nnc1-c1ccoc1C	-4%
Cc1c(Cl)cccc1NC(=O)CSc1nc(=O)n(Cc2cccnc2)c2c1CCC2	2%
CCCCSc1nnc2c(n1)OC(C)N(C(C)=O)c1ccccc1-2 (stereo not drawn)	3%
Cc1ccc2cc(C#N)c(SCC(=O)N3CCCc4ccccc43)nc2c1C	-20%
CCC(C)Sc1cccc(-c2nc3ccc(Cl)cn3c2NCc2ccccc2)c1 (stereo not drawn)	-26%
CCn1c(SCC(N)=O)nnc1C(C)C	7%
Cc1cc(C)c2c(=O)[nH]c(SCC(=O)c3ccc(F)c(C)c3)nc2n1	3%
CCC(C)Sc1nc(C)nc2c1c(=O)n(C)c(=O)n2C (stereo not drawn)	0%
COc1ccccc1-c1nnc(SC(C)C(=O)O)n1-c1ccccc1 (stereo not drawn)	-1%
Nn1c(COc2ccccc2)nnc1SC(F)F	-1%
Cc1ccc(C(=O)CSc2nnc(-c3ccco3)n2Cc2ccccc2)cc1	?
Cc1cccn2c(=O)cc(CSc3nnc(NC(=O)c4ccc(F)cc4)s3)nc12	6%
CCc1nnc(NC(=O)CSc2nc3cccnc3n2Cc2ccccc2)s1	-1%

# Screens deposited in PubChem by National Center for Advancing Translational Sciences (NCATS).

# Some of the compounds tested; the hit share may differ from the screen's.
